GIRK2 activ: opens human GIRK2 potassium channels. HEK293-GIRK2 thallium flux, Thallos fluorescence. calls only for hits at 25 µM. 63,000 tested, 0.05% active. P48051;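 active = among the strongest 0.2% of first-round signals and kept after retests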;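 also: first round at about 10 µM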
Target sequence (P48051 whole entry, looked up): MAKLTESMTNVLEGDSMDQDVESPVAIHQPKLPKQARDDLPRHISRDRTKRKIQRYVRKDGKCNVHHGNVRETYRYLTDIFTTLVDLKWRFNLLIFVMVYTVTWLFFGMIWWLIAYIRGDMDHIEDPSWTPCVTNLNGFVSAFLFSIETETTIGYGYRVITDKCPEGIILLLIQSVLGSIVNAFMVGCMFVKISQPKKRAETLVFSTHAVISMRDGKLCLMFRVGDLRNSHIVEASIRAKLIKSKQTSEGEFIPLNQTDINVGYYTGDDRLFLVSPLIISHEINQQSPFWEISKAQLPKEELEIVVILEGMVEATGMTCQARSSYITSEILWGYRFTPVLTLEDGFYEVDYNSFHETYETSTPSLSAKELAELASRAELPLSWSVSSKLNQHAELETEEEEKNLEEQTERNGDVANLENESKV
Calls only; i = inactive. The list is partial, so the mix of outcomes need not match the whole.

GIRK2 activ	Molecule
i	COc1ccc(F)cc1S(=O)(=O)NCCOc1cc(C)cc(C)c1
i	O=C(NCCc1ccc(Cl)cc1)C(=O)Nc1ccc(F)c(F)c1
i	COc1ccccc1N1CCN(C(=O)c2nnn(-c3ccccc3)c2-c2ccccn2)CC1
i	Cc1nn(-c2ccccc2)c2ncc(C(=O)Nc3ccc([N+](=O)[O-])cc3)c(Cl)c12
i	CC(=O)c1ccc(S(=O)(=O)NCCn2nc(-c3ccc(Cl)cc3)ccc2=O)cc1
i	Cc1c(Cl)cccc1NC(=O)COc1cc(=O)n2ccccc2n1
i	COCCNC(=O)C(=O)Nc1ccc(N2CCCS2(=O)=O)cc1
i	COc1ccc(COc2ccc(Cc3cnc(N)nc3N)cc2OC)cc1
i	Cc1ccc2nc(-c3ccc(NS(=O)(=O)c4cn(C)nc4C)cc3)sc2c1
i	C=CCn1c(=O)c2c(nc3oc(-c4ccccc4)cn32)n(C)c1=O
i	COCCN1CCC(CNC(=O)NCc2ccc(Cl)cc2)CC1
i	COCC(=O)NCC(Cc1cccc(F)c1)n1cccc1 (stereo not given)
i	Cc1cccc(S(=O)(=O)NCCN2CCN(c3ccc(Cl)cc3)CC2)c1
i	CC(CCc1ccco1)Nc1ncc2c(=O)n(-c3ccccc3)c(=O)[nH]c2n1 (stereo not given)
i	COC1(CNC(=O)C(=O)Nc2cc(C)on2)CCSC1 (stereo not given)
i	COc1ccccc1-c1cc2nc(C)cc(N3CCCCC3)n2n1
i	Cc1nn(C2CCS(=O)(=O)C2)c(C)c1N1CCN(CC(=O)Nc2nccs2)CC1 (stereo not given)
i	OC(COC12CC3CC(CC(C3)C1)C2)CN1CCOCC1 (stereo not given)
i	CCc1ccc(S(=O)(=O)NCCn2nc(C(F)(F)F)n(C)c2=O)s1
i	COc1cc(OC)cc(C(=O)NC(C)C(=O)Nc2nc3ccccc3[nH]2)c1 (stereo not given)
i	O=C(Cn1nc(-c2ccco2)ccc1=O)N1CCN(c2cc(-c3ccccc3)ncn2)CC1
i	Cc1cccc2[nH]c(SCC(=O)N(C(C)C)C(C)C)nc12
i	COc1ccccc1NC(=O)c1cnn(-c2nc(C)cc(=O)[nH]2)c1C
i	O=C(CCCn1c(=O)c2ccccc2n(CC(=O)NC2CCCC2)c1=O)NCc1ccco1
i	CN(C)C(CNC(=O)c1cc(=O)c2ccccc2o1)c1cccn1C (stereo not given)
i	CCn1c(SCC(=O)Nc2cccc(Cl)c2)nc2c(-c3ccccc3)c[nH]c2c1=O
i	O=S(=O)(C1CC1)N1CCN(c2nc3c(C(F)(F)F)cccc3s2)CC1
i	Cc1ccc(S(=O)(=O)N2CCCc3cc(NS(=O)(=O)c4ccc(C)cc4C)ccc32)cc1
i	CN1CCN(C2=Nc3ccccc3Oc3ccc(Cl)cc32)CC1
i	CCOCCCNC(=O)CNC(=O)c1ccc(=O)[nH]c1
i	COC(=O)c1ccc2c(=O)n(CC(=O)NCCCc3ccccc3)c(=S)[nH]c2c1
i	COC(=O)c1ccc(NC(=O)C(=O)NCC(C)(O)c2ccco2)cc1 (stereo not given)
i	Cn1nc(N2CCC(C(=O)N3CCN(S(=O)(=O)C4CC4)CC3)CC2)ccc1=O
i	CCCCn1c(SCC(=O)Nc2ccc(Cl)cc2F)nc2c(sc3ncccc32)c1=O
i	O=C(c1cc2ccccc2o1)N1CCC(c2nnc(C3CC3)o2)CC1
i	CC(C)CNC(=O)CCn1c(=O)c2ccccc2n2c(SCC(N)=O)nnc12
i	COc1ccc(-c2cc3cccc(OC)c3oc2=O)cc1OC
i	CCOC(=O)CSc1nc(N)c2c(C)c(C(=O)O)sc2n1
i	COc1ccc(OC)c(NC(=O)CC2Sc3ccc(C(F)(F)F)cc3NC2=O)c1 (stereo not given)
i	N#CC(c1nc2ccccc2nc1N1CCOCC1)S(=O)(=O)c1ccccc1 (stereo not given)
i	COc1c2c(cc3c1C(CC(=O)c1ccc4c(c1)OCO4)N(C)CC3)OCO2 (stereo not given)
i	COc1ccc(F)cc1S(=O)(=O)NCCn1ncccc1=O
i	Cc1ccc(-n2c(C)cn3c4c(=O)n(CC(N)=O)c(=O)n(C)c4nc23)cc1
i	Cc1cc(=O)n(CCNC(=O)c2cccc(Br)c2)cn1
i	Cc1ccc(C)c(S(=O)(=O)N2CCCOC2CNC(=O)C(=O)NCCCN2CCOCC2)c1 (stereo not given)
i	COc1ccc(OC)c(-c2csc(NC(=O)Nc3ccc4c(c3)OCO4)n2)c1
i	CN(C)S(=O)(=O)N1CCc2nc(NC(=O)C3CC3)sc2C1
i	Cc1ccc(S(=O)(=O)c2c(C)cc(C)n(CC(=O)NCc3ccc(Cl)cc3)c2=O)cc1C
i	COc1ccc(NC(=O)CSc2nccn2-c2cccc(C(=O)NCc3ccccc3F)c2)cc1
i	O=C(NCCCN1CCN(c2ccccc2)CC1)C(=O)Nc1ccccc1Cl
i	Cc1c(C(=O)c2ccccc2)oc2cc(NC(=O)C(C)C)ccc12
i	CC(C)c1ccc(C2C(C(=O)c3ccco3)=C(O)C(=O)N2c2ccccn2)cc1 (stereo not given)
i	COc1ccc(NC(=O)c2ccc(Oc3nccnc3N3CCCCC3)cc2)cc1OC
i	CN(CCO)CC1COCCN1C(=O)c1ccsc1 (stereo not given)
i	Nc1c(C(=O)NCc2cccs2)c2nc3ccccc3nc2n1/N=C\c1ccccc1
i	O=C(c1ccccc1[N+](=O)[O-])N(C(=O)N1CCCCC1)c1ccccc1
i	CCCc1noc(Cn2cnc3c4cc(C)ccc4n(CC(=O)Nc4ccc(CC)cc4)c3c2=O)n1
i	CC(=O)O[C@@H]1c2c(ccc3ccc(=O)oc23)OC(C)(C)[C@@H]1OC(=O)C=C(C)C
i	COc1ccc(OC)c(NC(=O)C(=O)NCC2(c3ccc(F)cc3)CC2)c1
i	Cc1ccccc1C(=O)N1CCN(c2oc(-c3ccccc3)nc2C#N)CC1

The list continues:
GIRK2 activ	Molecule
i	Cc1cc(C(=O)NCC2CCN(C(=O)c3ccoc3)CC2)no1
i	CC1=C(C(=O)Nc2ccccc2)C(c2ccco2)C(C#N)=C(SCC(=O)NCc2ccccc2)N1 (stereo not given)
i	Cc1cccc(OCC(O)Cn2c(N3CCN(c4ccccc4)CC3)nc3c2c(=O)n(C)c(=O)n3C)c1 (stereo not given)
i	CC(C)Sc1ccc(CC(=O)N2CCC(Oc3ncccc3Cl)CC2)cc1
i	O=C(CSC1CCCC1)NCC1CCN(C(=O)Oc2ccccc2)CC1
i	COC(=O)c1cc(OC)c(OC)cc1NC(=O)C1=Cc2ccccc2OC1
i	O=C(Cn1nc2c(c1NC(=O)Cc1ccccc1Cl)CSC2)NCc1ccccc1
i	CC1=C(C(=O)OC2CCCCC2)C(c2ccc(N(C)C)cc2)NC(=O)N1 (stereo not given)
i	CC(=O)c1cccc(NC(=O)Cn2nc3c(Oc4ccccc4)nccn3c2=O)c1
i	COc1cc(/C=C2\SC(=S)N(c3ccc4c(c3)OCO4)C2=O)cc(OC)c1OC
i	CC(C)(C)C(=O)N1CCN(c2ncnc3c2nnn3-c2ccc(Cl)cc2)CC1
i	COc1ccc(NC(=O)Cn2c(-c3ccc(C)cc3)ncc(C#N)c2=O)cc1OC
i	O=C(CCc1csc(NC(=O)Nc2ccccc2)n1)NCc1ccncc1
i	Cc1cc(C)n(-c2nc(CCNC(=O)c3ccc[nH]c3=O)cs2)n1
i	CN(Cc1ccccc1)C(=O)c1ccc(-n2cccn2)nn1
i	CCOC(=O)NC1CC(=O)N(C2CC2)C1 (stereo not given)
i	COc1cccc(OC)c1C(=O)NC(C)Cc1ccco1 (stereo not given)
i	COc1ccc(C2C(C(=O)Nc3ccccc3)C(C)Nc3ncnn32)cc1 (stereo not given)
i	COc1cccc(C2C(=C(O)c3ccc4c(c3)OCO4)C(=O)C(=O)N2CCN(C)C)c1OC (stereo not given)
i	CC(=O)SCC(Cc1ccccc1)C(=O)NCC(=O)OCc1ccccc1 (stereo not given)
i	NC(=O)c1ccccc1NC(=O)c1coc(NC(=O)C2CCC2)n1
i	CCOc1ccccc1NC(=O)CSc1nc2cc(-c3ccccc3)sc2c(=O)n1C
i	O=C(CSc1nc2ccccc2o1)c1ccccn1
i	COc1cccc(OCC(=O)N2CCOCC2CO)c1 (stereo not given)
i	O=c1ccc(-c2ccc3c(c2)OCO3)nn1CCc1nc(-c2ccccc2)no1
i	CCCCCn1c(SCc2ccccn2)nc2cc(C(=O)N3CCCC3)ccc2c1=O
i	O=C(CCn1cnc2ccccc2c1=O)Nc1cccc(-c2ccn[nH]2)c1
i	COc1ccc2c(c1)c(CC(=O)Nc1ncccn1)c(C)n2C(=O)c1ccc(Cl)cc1
i	Cc1cc(C)cc(S(=O)(=O)NCCNC(=O)c2ccc(NC(=O)C(C)(C)C)cc2)c1
i	CCOC(=O)c1cnn(-c2ccc(C(=O)Nc3ccc(F)cc3)cn2)c1C
i	O=C(Cc1c[nH]c2ccccc12)NCCCn1ncccc1=O
i	COc1ccc(CCNC(=O)N2CC(c3nc(C4CC4)no3)C2)cc1
i	NC(=O)C1CCN(C(=O)c2cc3cc([N+](=O)[O-])ccc3oc2=O)CC1
i	O=C1CCSCC(C(=O)Nc2ccc(F)c(C(F)(F)F)c2)N1 (stereo not given)
i	CC(C)N(CC#CCNC(=O)CSc1ccc(F)cc1)C(C)C
i	O=C(Cn1nc(-c2ccc(F)cc2)c2sc(N3CCCC3)nc2c1=O)NC1CCCC1
i	COc1ccc(-n2cc(C(=O)NCc3ccc(SC)cc3)nn2)cc1
i	CCCCn1c(SCC(=O)Nc2ccc(C(=O)OCC)cc2)nc2c(sc3ncccc32)c1=O
i	CCCNC(=O)NC1(c2nc(C3CC3)no2)CCCCC1
i	COc1ccc(CNC(=O)Cn2cnc3c(c2=O)CCCC3)cc1

A portion taken from the entries so far:
GIRK2 activ	Molecule
i	CC(=O)SCC(Cc1ccccc1)C(=O)NCC(=O)OCc1ccccc1 (stereo not given)
i	NC(=O)c1ccccc1NC(=O)c1coc(NC(=O)C2CCC2)n1
i	CCOc1ccccc1NC(=O)CSc1nc2cc(-c3ccccc3)sc2c(=O)n1C
i	O=C(CSc1nc2ccccc2o1)c1ccccn1
i	COc1cccc(OCC(=O)N2CCOCC2CO)c1 (stereo not given)
i	O=c1ccc(-c2ccc3c(c2)OCO3)nn1CCc1nc(-c2ccccc2)no1
i	CCCCCn1c(SCc2ccccn2)nc2cc(C(=O)N3CCCC3)ccc2c1=O
i	O=C(CCn1cnc2ccccc2c1=O)Nc1cccc(-c2ccn[nH]2)c1
i	COc1ccc2c(c1)c(CC(=O)Nc1ncccn1)c(C)n2C(=O)c1ccc(Cl)cc1
i	Cc1cc(C)cc(S(=O)(=O)NCCNC(=O)c2ccc(NC(=O)C(C)(C)C)cc2)c1
i	CCOC(=O)c1cnn(-c2ccc(C(=O)Nc3ccc(F)cc3)cn2)c1C
i	O=C(Cc1c[nH]c2ccccc12)NCCCn1ncccc1=O
i	COc1ccc(CCNC(=O)N2CC(c3nc(C4CC4)no3)C2)cc1
i	NC(=O)C1CCN(C(=O)c2cc3cc([N+](=O)[O-])ccc3oc2=O)CC1
i	O=C1CCSCC(C(=O)Nc2ccc(F)c(C(F)(F)F)c2)N1 (stereo not given)
i	CC(C)N(CC#CCNC(=O)CSc1ccc(F)cc1)C(C)C
i	O=C(Cn1nc(-c2ccc(F)cc2)c2sc(N3CCCC3)nc2c1=O)NC1CCCC1
i	COc1ccc(-n2cc(C(=O)NCc3ccc(SC)cc3)nn2)cc1

Remaining list, next part.
GIRK2 activ	Molecule
i	Cc1nn(-c2ccccc2)c(C)c1N1CCN(C(=O)Nc2ccccc2C(F)(F)F)CC1
i	CC(C)NC(=O)Cn1c(C2CC(=O)N(Cc3ccccc3)C2)nc2ccccc21 (stereo not given)
i	CC(=O)Oc1ccccc1-n1c(=O)c2ccccc2c2ccccc2c1=O
i	CC(O)CNC(=O)c1nnn(-c2ccc(F)cc2)n1 (stereo not given)
i	O=C(NCc1ccsc1)Nc1ccccc1
i	COC(=O)CSc1ccc(-c2ccc(OC)c(OC)c2)nn1
i	CC(=O)Nc1ccc(S(=O)(=O)NCc2cc(-c3cccs3)n(C3CCCC3)n2)cc1
i	COC(=O)c1ccc(C(=O)NCC2CCN(c3ccccn3)CC2)cc1
i	COc1ccc(NC(=O)c2cc3cc(Cl)cc(Cl)c3oc2=O)cc1
i	O=C1/C(=C/c2ccncc2)Oc2c1ccc1c2CN(Cc2cccs2)CO1
i	O=C(NCC#CCN1CCCC1)Nc1ccccc1C(F)(F)F
i	O=C(NCc1cccc(-c2nccs2)c1)Nc1ccc2c(c1)OCO2
i	COc1ccc(C(=O)/C=C/c2ccccc2Cl)c(OC)c1
i	O=C(c1csc(Nc2ncccn2)n1)N1CCOCC1
i	CCOC(=O)C1CCN(CC(O)COc2cccc3ccccc23)CC1 (stereo not given)
i	CC(C)(C)C(=O)Oc1ccc(Br)cc1
i	CSc1ccccc1C(=O)N1CCOC(c2cc(Cl)cc(Cl)c2)C1 (stereo not given)
i	Clc1ccc(/C=C/c2nn3c(-c4ccco4)nnc3s2)cc1
i	O=C(Nc1nccs1)C1CCN(C(=O)COc2ccc(F)cc2)CC1
i	Cn1c(=O)c2c(nc3n(Cc4cccc(Cl)c4)c(-c4ccccc4)cn23)n(C)c1=O

Retrieved by structure from the entries so far:
GIRK2 activ	Molecule
i	O=C1/C(=C/c2ccncc2)Oc2c1ccc1c2CN(Cc2cccs2)CO1
i	O=C(Nc1nccs1)C1CCN(C(=O)COc2ccc(F)cc2)CC1

Continuation.
GIRK2 activ	Molecule
i	COc1cc(C2NC(=O)NC(C)=C2C(=O)Nc2ccc(C)c(C)c2)ccc1O (stereo not given)
i	COc1ccccc1N1CCN(Cc2cc(=O)oc3cc(-c4ccccc4)c(O)cc23)CC1
i	O=C(CC1CCCCN1S(=O)(=O)c1ccccc1)NC1CCCCCC1 (stereo not given)
i	O=S(=O)(CCc1ccccc1)N(CCc1cccs1)C1CC1
i	Cc1ccc(-n2nnc(C(=O)Nc3cc4ccccc4oc3=O)n2)cc1
i	N#C/C(=C\c1cc(Cl)cc2c1OCOC2)c1nc2ccccc2o1
i	CCOC(=O)N1CCC(NC(=O)Cc2c(C)nc(SCc3ccccc3)[nH]c2=O)CC1
i	COc1cc2c(cc1O)[C@H](c1ccc(O)c(O)c1)[C@@H](CO)[C@H](CO)C2
i	COc1cccc2cc(C(=O)Nc3cccc4nsnc34)oc12
